# Assay outcomes (PubChem BioAssay)
# HCMV NEC inh: disrupts HCMV UL50-UL53 complex binding; HTRF UL50-UL53 interaction, normalized percent inhibition; inhibition, % (test concentration not listed); 190,000 tested, 0.15% active; AID 1918969;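 active = both replicates at 50% or more, plus weaker picks with an unusually low signal ratio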;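 also: stock transfer was 100 nL into about 20 µL; 0% = negative control wells and 100% = wells with untagged competitor protein; inactives centre near -12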
# Sa growth 42C: blocks Staphylococcus aureus growth. S. aureus RN4220 growth, OD600, 20 h, 42 °C; stronger effect = lower value. relative growth, % (concentration not given with the values). 170,000 tested, 0.53% active. AID 720641;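 active = growth at 42 °C up to 50% and 20 or more points under that at 30 °C, or under 10% at both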;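 also: 300 nL library stock went into each well; scaled to the means of positive and negative controls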
# GIV-Gai inh: blocks GIV peptide binding to rat Galpha-i3; P08753; Galpha-i3/FITC-GIV peptide fluorescence polarization, 90 min; stronger effect = lower value; scaled: aluminum fluoride 0%, vehicle 100%; percent of control (FP), % (concentration not given with the values); 210,000 tested, 0.42% active;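 active = replicate mean at 85% of control or lower, very high polarization wells dropped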;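 also: wells of about 15 µL received 100 nL stock; the first replicate is given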
# Target sequence (P08753 whole entry, looked up): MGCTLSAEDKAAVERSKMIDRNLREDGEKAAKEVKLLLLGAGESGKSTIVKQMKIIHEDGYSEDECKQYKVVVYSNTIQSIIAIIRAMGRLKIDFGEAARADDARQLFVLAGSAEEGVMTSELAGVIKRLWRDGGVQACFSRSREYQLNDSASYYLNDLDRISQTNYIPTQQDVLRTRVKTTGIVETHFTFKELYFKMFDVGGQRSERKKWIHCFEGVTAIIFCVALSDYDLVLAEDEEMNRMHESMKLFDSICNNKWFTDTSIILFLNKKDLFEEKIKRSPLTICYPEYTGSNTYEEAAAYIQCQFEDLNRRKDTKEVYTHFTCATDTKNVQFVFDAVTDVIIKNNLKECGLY
# Sa growth 42C second temp: recorded beside Sa growth 42C, whose call it bears; relative growth, %; measured here: growth at 30 °C;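 optical density after 20 h as mean of two plates; 100% = untreated growth and lower means inhibition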
# Active calls of the source: *; · = no result given; & = joins results of further samples.
SMILES,HCMV NEC inh,Sa growth 42C,Sa growth 42C second temp,GIV-Gai inh
O=C1c2ccccc2C(=O)N1N=C1CCCCC1,-18,100,79,108
CN(C)c1ccc(CNC(=O)C2CCCN(S(=O)(=O)c3ccc4c(ccn4C)c3)C2)cc1 (stereo unspecified),·,90,85,101
CC(C)Cn1c(SCc2ccccc2C#N)nnc1-c1ccccc1F,-12,82,87,·
COc1ccc(Cc2nc3c4c5c(sc4ncn3n2)CCCCC5)cc1OC,-10,·,·,104
C/C=C/NC(=O)c1nc2c(nnn2Cc2ccc(C)cc2)c(=O)[nH]1,-7,97,71,99
CCC(C(=O)N(CC)CC)N1CCN(Cc2ccc(F)cc2)C(=O)C1=O (stereo unspecified),-34,·,·,104
O=C(O)C(Cc1ccccc1)N1C(=O)/C(=C\c2ccco2)SC1=S (stereo unspecified),-23,62,49,91
CCOC(=O)C1CCN(S(=O)(=O)c2cc(-c3onc(C)c3C)ccc2C)CC1,·,91,82,102
COCCn1ccc2nc(SC)ncc2c1=O,10,100,106,105
Cc1cc(NNS(=O)(=O)c2ccc(CCC(=O)O)cc2)n2ncnc2n1,-13,94,96,·
COC(=O)c1sc2cccc(F)c2c1S(=O)(=O)N1CCN(c2cccc(C)c2)C(C)C1 (stereo unspecified),·,115,87,101
O=C1NCCN1CCN1C(=O)c2ccccc2NC1c1cccs1 (stereo unspecified),-14,94,90,99
COc1ccc(-c2nn3c(NCCc4ccccc4)cc(C)nc3c2C)cc1OC,-29,·,·,101
CCc1ccc(NC(=S)N(Cc2cccs2)C2CCCC2)cc1,·,122,78,106
O=C(N1CCN(c2ccccc2)CC1)C(F)(F)F,-5,109,88,·
CCC(=O)N1CCc2cc(CNC(=O)Nc3cc(C)ccc3C)ccc21,·,90,77,99
CCOc1ccc(C(=O)Nc2c(C(=O)N3CCN(c4ccccc4F)CC3)oc3ccccc23)cc1,·,92,92,101
CC(C)NC(=O)CSc1nnc(-c2cccs2)n1C,-22,112,92,·
CCNc1nc(OC)nc(Oc2ccc(=O)[nH]n2)n1,-8,102,95,103
O=C(CSc1ccccn1)Nc1ccccc1Sc1nccc(C(F)(F)F)n1,·,104,87,100
COc1ccc2cc(C(=O)O)[nH]c2c1,-28,·,·,104
CCN(CC)S(=O)(=O)c1ccc(Nc2ncnc3c2nc2n3CCCCC2)cc1,-34,87,85,98
Cc1c(CNC2CCC(C)CC2)c(C(=O)O)c(C)n1Cc1ccccc1F (stereo unspecified),-32,116,86,104
O=C(OCC(=O)N(C1CCCCC1)C1CCCCC1)c1ccc(N2CCCC2=O)cc1,5,95,94,·
CC(C)n1c2ccccc2c2n[nH]c(=S)nc21,-65,72,69,105
Cc1cc(C)nc(NS(=O)(=O)c2ccc(NC(=O)/C=C/c3ccc(F)cc3)cc2)n1,-39,·,·,101
COc1ccc(CCC(=O)Nc2ccc(/C(N)=N/O)cc2)cc1,-5,110,100,103
C=CCN1C(=O)/C(=C\c2ccc(OC(=O)c3ccco3)c(OC)c2)SC1=S,·,110,96,117
O=C(CSc1nnnn1-c1ccc(O)cc1)c1c[nH]c(C(=O)N2CCCC2)c1,-6,59,57,·
O=C(Nc1ccc2oc(-c3ccccc3F)nc2c1)c1ccccc1Cl,-58,91,84,111
CCNC(=S)N1CCCC(C(N)=O)C1 (stereo unspecified),1,97,91,·
S=C(NCCc1ccccn1)NN1C2CSC1CS2,-34,95,86,102
Cc1cccc(OCC(=O)N2CCc3ccccc32)c1,-18,106,77,99
N#Cc1cccnc1Oc1ccc(Cl)cc1Cl,-22,101,84,107
CC1(C)COC(/C=C(\N)c2ccc(Br)cc2)=N1,-18,115,80,·
O=C(Nc1ccc(S(=O)(=O)Nc2nccs2)cc1)N1c2ccccc2Sc2ccccc21,·,72,55,105
COc1ccc(Nc2ncnc3onc(C)c23)c(OC)c1,·,75,91,100
Cc1nc2ccc(I)cn2c1/C=N/NCCC#N,-22,88,92,·
COc1ccccc1CC(NC(C)=O)C(=O)N1CCN(C(=O)c2cccs2)CC1 (stereo unspecified),2,99,70,102
CCC(=O)Nc1ccc(C)cc1-c1nc2ccccc2n(CC(=O)Nc2ccccc2Cl)c1=O,-3,112,101,101
CC(C)C(=O)Nc1cccc(-c2nc3ccccc3c(=O)o2)c1,·,88,87,98
C=Cc1ccc(Cn2nc3n(Cc4ccccc4)c(=O)c4ccccc4n3c2=O)cc1,-39,·,·,102
COc1cc(NC(=O)CC(CC(=O)O)c2ccccc2)c(C(=O)O)cc1OC (stereo unspecified),20,108,101,102
CCOc1cc(Br)c(Br)c(/C=C2\SC(=S)N(CC(=O)O)C2=O)c1O,-40,·,·,142
Cc1nc(C)c(C(=O)Nc2ccccc2F)s1,-20,·,·,109
NCCCC(=O)OC1CCCCC1,-5,104,85,93
COc1ccc(Cl)cc1NCc1nc2nc3c(c(=O)n2[nH]1)CCC3,-18,·,·,99
Cc1cc2nc(C)c(CCC(=O)N3CCN(Cc4ccc(C(C)C)cc4)CC3)c(C)n2n1,-5,106,92,·
Cc1cccc(N2CCN(C(=O)CN3C(=O)COc4ccc(S(=O)(=O)N5CCCC5)cc43)CC2C)c1 (stereo unspecified),-15,95,78,100
CN=c1scc(C)n1/N=C/c1ccco1,-45,105,91,·
CC(C)C(NS(=O)(=O)c1ccc2c(c1)CCCC(=O)N2)C(=O)NC1CCCC1 (stereo unspecified),-29,115,89,99
O=C(CSc1nnc(NC2=NS(=O)(=O)c3ccccc32)s1)N1CCOCC1,-12,116,86,102
CCCN(CCC)C(=O)c1cc2sc3ccccc3c2s1,-12,105,98,·
O=C(NCc1cccc(Br)c1)c1ccc(N2C(=O)Cn3c(cc4sccc43)C2=O)cc1,-34,·,·,110
O=C(c1ccc(Cl)c(Cl)c1)c1nccn1-c1ccccn1,-12,89,85,·
Cc1cc(NC(=O)CN2CCN(S(=O)(=O)c3ccc(Cl)cc3)CC2)no1,-26,91,93,·
Cc1oc2ncnc(N3CCC(C(=O)NCc4cccc(Cl)c4)CC3)c2c1C,6,·,·,104
O=C(CCc1ccccc1)Nc1ccccc1,-11,106,107,101
O=C(NC1CCCCC1)N1CC=C(c2ccccc2)CC1,3,100,60,106
CCC(CO)NC(=S)Nc1c(Cl)cccc1Cl (stereo unspecified),-17,91,94,104

# Sorted by the number under Sa growth 42C (smallest number first): four of the compounds above.
SMILES	Sa growth 42C
O=C(CSc1nnnn1-c1ccc(O)cc1)c1c[nH]c(C(=O)N2CCCC2)c1	59
O=C(Nc1ccc2oc(-c3ccccc3F)nc2c1)c1ccccc1Cl	91
O=C(NC1CCCCC1)N1CC=C(c2ccccc2)CC1	100
CC1(C)COC(/C=C(\N)c2ccc(Br)cc2)=N1	115

# One compound at a time (already shown). Order of values: HCMV NEC inh	Sa growth 42C	Sa growth 42C second temp	GIV-Gai inh
# Shown for O=C(c1ccc(Cl)c(Cl)c1)c1nccn1-c1ccccn1 : -12	89	85	·
# Shown for O=C(NC1CCCCC1)N1CC=C(c2ccccc2)CC1 : 3	100	60	106

# The list continues.
SMILES,HCMV NEC inh,Sa growth 42C,Sa growth 42C second temp,GIV-Gai inh
CCCCn1c(C)csc1=Nc1ccccc1,-1,84,75,97
Cc1ccc(NC(=O)COC(=O)CC2CCCC2)cc1F,20,114,97,·
CC1(c2ccccc2)CCC(=O)O1 (stereo unspecified),8,103,84,109
CC(NC(=O)CSc1ccccc1Cl)c1ccccc1 (stereo unspecified),-2,112,100,·
COc1cc(OC)c(-n2nnc(-c3nc(-c4ccccc4)no3)c2C)cc1Cl,-13,·,·,105
CC(=O)Nc1ccccc1C(=O)N(Cc1ccccc1)Cc1ccccc1,·,98,91,102
COC(=O)c1ccc(NC(=O)CN(Cc2ccccc2)S(=O)(=O)c2ccc(Cl)cc2)cc1,-21,97,74,103
O=C(CNc1ccc2c(c1)oc1ccccc12)c1ccc(F)cc1,-20,97,83,·
CCCc1c(-c2ccc(O)cc2)nn(-c2ccc(O)cc2)c1-c1ccc(O)cc1,5&-28&-28&-2,·,·,102
CC1=NC(=O)CN1c1ccc(N)cc1,·,105,87,105
Cc1cccc(CNC(=O)c2cnc3c(-c4cccc(C)c4)c(C)nn3c2C)c1,·,83,91,100
CC(Oc1ccc(/C=C2\C(=O)NC(=O)N(c3cccc(Cl)c3)C2=O)cc1)C(=O)O (stereo unspecified),2,·,·,113
CC(C)CCNC(=O)c1ccc(Cn2c(SCC(N)=O)nc3ccccc3c2=O)cc1,·,98,73,100
CN(C)C(CNC(=O)C(c1ccccc1)c1ccccc1)c1ccco1 (stereo unspecified),0,119,102,·
O/N=C/c1ncc(C(F)(F)F)cc1Sc1ccc(Cl)cc1,-2,165,91,99
Cc1c(-c2ccc(Cl)cc2)nc2ccccc2c1C(=O)NCCN1CCOCC1,-35,·,·,108
Cc1nnsc1C(=O)NCc1cc(F)cc2c1OCOC2,-4,87,90,102
CC1CCC(C(=O)NC(C(=O)NC2CCN(Cc3ccccc3)CC2)C(C)C)CC1 (stereo unspecified),-1,108,95,102
O=C(CSc1ncnc2c1nnn2-c1ccc(F)cc1)N1CCCc2ccccc21,·,108,94,104
CCc1nc(-c2cc(S(=O)(=O)N3CCN(C)CC3)c(C)s2)no1,-31,·,·,103
Clc1ccccc1OCc1nn[nH]n1,1,102,102,95
CCC(=O)N1N=C(c2ccccc2)CC1c1ccc(N(C)C)cc1 (stereo unspecified),·,100,100,101
CC1CC(C)CN(C(=O)c2ccc(CNS(=O)(=O)c3ccc(F)cc3)cc2)C1 (stereo unspecified),·,137,87,102
Cc1ccc(CC2C(=O)Nc3ccc(Br)cc32)cc1 (stereo unspecified),-11,·,·,104
CCN(CC)c1ccc(C=Nc2ccc(S(=O)(=O)N3CCCC3)cc2)c(O)c1,-27,103,98,·
O=c1c(-c2nc(-c3ccc4c(c3)OCO4)no2)c[nH]c2ccccc12,-15,·,·,97
CS(=O)(=O)N1CCN(S(C)(=O)=O)C2OCCOC21 (stereo unspecified),-7,100,112,104
C=CCSc1nc2ccccc2n1Cc1cc(C(=O)OC)c(C)o1,-12,102,89,·
CCOC1=CC2=C(CC(C)(C)CC2=O)OC1N(C)C (stereo unspecified),-14,81,89,101
CCOc1ccc(Sc2cc(C(=O)NC(C)CC)c3ccccc3n2)cc1 (stereo unspecified),·,156,99,106
Cc1cccc(CN2CCCn3nc(C(=O)NC(C)c4ccc5c(c4)OCCO5)cc3C2=O)c1 (stereo unspecified),5,·,·,99
Cc1cccn2c(=O)c(C(=O)NCc3ccc(F)cc3)c(O)nc12,8,94,92,100
COCCOC(=O)C1=C(C)NC2=C(C(=O)CC(c3ccc(OC)c(OC)c3)C2)C1c1cc(OC)ccc1OC (stereo unspecified),-66,·,·,104
CCOC(=O)N1CCN(C(=O)C2c3ccccc3C(=O)N(c3ccc(OC)cc3)C2c2ccc(OC)cc2)CC1 (stereo unspecified),-21,85,88,103
CCN(CCCNC(=O)CSc1cc(=O)n(C)c2ccccc12)c1ccccc1,0,104,70,101
COC(=O)c1[nH]c2c(c1C)C(=O)CC(c1ccc(OC)cc1)C2 (stereo unspecified),-25,100,87,106
Cc1ccc2nc(CN3CCc4sccc4C3c3cccs3)cn2c1 (stereo unspecified),-11,0.1*,-0.3*,·
COc1cc(NC(=O)c2cccc(Nc3ccc(-c4cccc(C)c4)nn3)c2)cc(OC)c1,-16,·,·,105
CCN(CC)S(=O)(=O)c1ccc2c(c1)c(=O)c(C(=O)N1CCN(c3cc(C)ccc3C)CC1)cn2C,-20,103,94,103
O=C(COc1ccc2ccccc2c1)Nc1ccc2nn(-c3ccccc3)nc2c1,·,107,92,105
CCOC(=O)C1=CN(C)C=C(C(=O)OCC)C1c1cc(Br)c(O)c(OC)c1,·,93,90,98
O=C1Cc2ccccc2C(=O)N1Cc1ccco1,35,83,93,·
CCc1ccc(CNc2ncc3nc(-c4ccccc4)oc3n2)cc1,1,·,·,102
O=C1c2ccccc2-c2nn(C(=O)Cc3ccccc3)c3cccc1c23,·,102,104,105
Clc1ccc(-c2csc3ncnc(Nc4ccc5c(c4)OCCO5)c23)cc1,13,·,·,103
COc1ccc(C2=NN(CCC(=O)NCc3ccccc3)C(=O)CC2)cc1,-40,103,86,106
Cc1nc(-c2ccc(N3CCN(C(=O)CCc4c[nH]c5ccccc45)CC3)cc2)no1,-33,·,·,105
CCOC(=O)c1c(C)[nH]c(C(=O)OCc2nc(N)nc(Nc3ccccc3C)n2)c1C,-17,91,97,·
CCOC(=O)c1c(C)oc(-c2ccccc2)c1S(=O)(=O)N1CCN(c2ncc(C(F)(F)F)cc2Cl)CC1,-27,93,87,105

# Some of the entries so far, field by field:
> COc1ccc2cc(C(=O)O)[nH]c2c1
  HCMV NEC inh: -28 | Sa growth 42C: · | Sa growth 42C second temp: · | GIV-Gai inh: 104

> CCN(CC)S(=O)(=O)c1ccc(Nc2ncnc3c2nc2n3CCCCC2)cc1
  HCMV NEC inh: -34 | Sa growth 42C: 87 | Sa growth 42C second temp: 85 | GIV-Gai inh: 98

> Cc1c(CNC2CCC(C)CC2)c(C(=O)O)c(C)n1Cc1ccccc1F (stereo unspecified)
  HCMV NEC inh: -32 | Sa growth 42C: 116 | Sa growth 42C second temp: 86 | GIV-Gai inh: 104

> O=C(OCC(=O)N(C1CCCCC1)C1CCCCC1)c1ccc(N2CCCC2=O)cc1
  HCMV NEC inh: 5 | Sa growth 42C: 95 | Sa growth 42C second temp: 94 | GIV-Gai inh: ·
